LANA-H2A inh – blocks KSHV LANA binding to histone H2A/H2B. inhibition, % (concentration not given with the values). cell-free LANA-H2A/H2B peptide, fluorescence polarization. 320,000 tested, 0.6% active. Q9QR71. AID 2629; in the data active = inhibition mostly above about 10%, no sharp cut-off; inactive = mostly below about 6.7%;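 note: stock transfer was 7.5 nL into about 10 µL; 0% = median of vehicle wells and 100% = median of positive control wells; one replicate is shown; the record names a cut of 25% in any replicate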
Bfl-1 A1 inh – inhibitors of the anti-apoptotic protein A1, read as caspase activation | MEF A1-2A-BIM cells, Caspase-Glo 3/7 luminescence, 3 h; percent of clofoctol response, vehicle zero | caspase activation, % (concentration not given with the values) | 330,000 tested, 0.066% active | AID 2462;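 active = over half of replicate activation scores above 10%, or exactly half above 10 with the replicate mean above 10; inconclusive = replicate mean below 10 yet half the replicates above 10; inactive = over half of replicates below 10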;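 note: wells of about 30 µL received 50 nL stock; many hits fall short of the cut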
B2AR ag – human beta-2 adrenergic receptor agonism by FAP; P07550; Am2.2-beta2AR cells, FAP receptor internalization, flow cytometry; reference of the scale not given here; response, % (concentration not given with the values); 340,000 tested, 0.43% active;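 active = response above a set limit, near 3 SD of response in nonfluorescent compounds, cut at about 42% in these data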;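 note: stock transfer was 100 nL into about 11 µL; a reference agonist was the positive control; negative values mostly stem from fluorescent compounds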
Target sequence (P07550 whole entry, looked up): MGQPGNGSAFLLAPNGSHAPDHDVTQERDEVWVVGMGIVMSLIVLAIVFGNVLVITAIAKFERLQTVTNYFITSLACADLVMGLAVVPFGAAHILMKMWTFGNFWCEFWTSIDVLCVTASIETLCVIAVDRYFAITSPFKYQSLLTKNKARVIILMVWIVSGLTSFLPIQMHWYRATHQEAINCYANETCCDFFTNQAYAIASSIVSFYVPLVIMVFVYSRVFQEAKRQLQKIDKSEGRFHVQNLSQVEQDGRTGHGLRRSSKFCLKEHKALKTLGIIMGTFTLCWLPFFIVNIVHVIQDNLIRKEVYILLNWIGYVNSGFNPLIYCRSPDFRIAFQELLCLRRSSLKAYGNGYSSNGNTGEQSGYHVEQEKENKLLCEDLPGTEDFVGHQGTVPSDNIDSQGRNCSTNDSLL
Calb FLC – C. albicans growth modulation with fluconazole; C. albicans CaCi-2 (fluconazole-resistant clinical isolate) + fluconazole, Alamar Blue growth, 48 h; growth inhibition, % (no concentration beside the values); 300,000 tested, 0.57% active; AID 1979;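 active = most replicates above 75%; inconclusive = exactly half above 75%; inactive = most below 75%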;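 note: all wells also contain fluconazole at 8 µg/ml as a sub-toxic cotreatment; 0% = median of DMSO wells and 100% = median of geldanamycin control wells; wells of about 8 µL received 7.5 nL stock; the first replicate is given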
T cruzi repl – blocks replication of Trypanosoma cruzi. T. cruzi beta-gal in NIH3T3, luminescence, 90 h. inhibition, % (test concentration not listed). 300,000 tested, 1.4% active. AID 1885;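 active = mean inhibition across valid replicates above about 55%, limit read from the data; inconclusive = mean below that limit but half or more replicates reach it; inactive = mean below it, under half of replicates reach it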;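 note: signal also drops with host cell toxicity which is not excluded here; 0% = plate median of DMSO wells and 100% = zero luminescence signal; higher percent means less beta-gal luminescence so fewer parasites; stock transfer was 50 nL into about 50 µL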
ALR inh – human ALR oxidase inhibition via reduced H2O2; P55789; purified ALR, DTT oxidation, H2O2 HRP-luminol luminescence; inhibition, % (no concentration beside the values); 290,000 tested, 3.8% active; AID 485317;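 active = mean and each replicate at 75% or more; inconclusive = only one of the two met; inactive = neither met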;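 note: stock transfer was 7.5 nL into about 7.5 µL; 0% = neutral wells and 100% = wells with inactivated enzyme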
Target sequence (P55789 whole entry, looked up): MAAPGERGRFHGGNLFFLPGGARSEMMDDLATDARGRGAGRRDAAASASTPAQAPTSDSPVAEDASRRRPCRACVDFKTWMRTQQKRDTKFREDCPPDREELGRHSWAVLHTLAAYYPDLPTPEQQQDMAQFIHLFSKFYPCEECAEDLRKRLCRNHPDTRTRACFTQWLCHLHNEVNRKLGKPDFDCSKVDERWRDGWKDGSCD
Beta cell apopt – beta cell apoptosis inhibition; 300,000 tested, 0.8% active; INS-1E cytokine-induced death, ATP luminescence, 48 h; percent of positive-control rescue, neutral wells zero; protection from apoptosis, % (no concentration beside the values); AID 435005;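 active = all replicates at 75% or more, or half of them and the mean; inconclusive = half reach 75% but not the mean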;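 note: 0% = cytokine-treated negative control wells and 100% = positive control rescue; higher means more ATP so stronger rescue from cytokine killing; wells of about 40 µL received 100 nL stock; the first replicate is given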
rRNA inh HTS – selective bacterial rRNA inhibition in E. coli | E. coli WT GFP vs humanized-ribosome RFP mutants, fluorescence, 24 h; hits give low values; DMSO median 0, no signal -100 | GFP signal change (wild-type ribosome), % (no concentration beside the values) | 350,000 tested, 1.6% active | AID 720706;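 active = significant combined selectivity score with lowered wild-type GFP, culture density cut under 30%, mutant RFP and density less affected; inactive = any of these conditions unmet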; note: one replicate is shown; some compounds called inactive have numbers as strong as hits
rRNA inh HTS OD600 – also measured in rRNA inh HTS; calls as there; OD600 change, %; measured here: OD600 growth;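 optical density of the mix in the first replicate; 0 = DMSO median and -100 = no signal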
rRNA inh HTS RFP – second read-out of rRNA inh HTS, no call of its own (marks repeat the call); RFP signal change, %; measured here: RFP humanized mutant strains;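 first replicate; 0 = DMSO median and -100 = no signal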
* hit, by the source's call; ? = inconclusive; / = not tested or not shown.

SMILES	LANA-H2A inh	Bfl-1 A1 inh	B2AR ag	Calb FLC	T cruzi repl	ALR inh	Beta cell apopt	rRNA inh HTS	rRNA inh HTS OD600	rRNA inh HTS RFP
C=CCn1c(SCC(=O)NC2CCS(=O)(=O)C2)nnc1-c1cc2c(s1)CCC(CC)C2 (stereo unspecified)	-2.1	-2.7	-23	-7	-1	-5	0	/	/	/
O=S(=O)(c1ccc2ccccc2c1)N1CCN(c2ccc(O)cc2)CC1	-0.9	-0.5	3	/	/	/	0	-32	-33	-5.3
Cc1nn(C2CCS(=O)(=O)C2)c(Cl)c1/C=C/C(=O)OCC(=O)N(C)C (stereo unspecified)	3.9	-0.3	-2	-7	-15	-7	-2	2	8	-2.7
CC(C)(C)C(=O)CSc1ncnc2sc3c(c12)CCC3	-3.5	0.3	-17	?	15	2	1	-3	-6	-1.6
NS(=O)(=O)c1ccc(NC(=O)C2CCCN(S(=O)(=O)c3ccc(F)cc3)C2)cc1 (stereo unspecified)	0.9	-0.6	3	8	-8	-4	/	/	/	/
CCc1cccc2c(C(=O)CSc3nncn3-c3ccc(OC)cc3)c[nH]c12	-1.6	-1.0	9	-11	9	2	-6	7	8	1.4
O=C(N1CCOCC1)N(CCN1CCOCC1)Cc1cccc2ccccc12	3.8	0.2	-8	3	3	-36	/	/	/	/
CN(C(=O)CSc1nccc(=O)[nH]1)C1CCCCC1	-4.2	-0.1	9	/	/	-1	-7	11	5	-1.5
CC1Cc2nc(SCC(=O)NCC3CCCO3)n(C)c(=O)c2S1 (stereo unspecified)	1.4	-0.8	3	2	-12	-5	-2	10	17	-2.4
Cc1c(C(=O)Nc2ccccc2)sc2nc(-c3ccccc3)cn12	0.0	-1.6	11	-25	15	-3	14	/	/	/
CN1C(=O)c2cccc3c(S(=O)(=O)NCCc4ccccc4)ccc1c23	-0.9	0.0	-31	-6	0	-5	1	-23*	-9.2*	-8.5*
COc1ccc(OC)c(/C=N/NC(=O)CCc2ccc(O)c(O)c2)c1	1.0	0.2	8	-3	-25	/	1	/	/	/
COc1ccc(C(=O)C[n+]2cccc3cc(OC)ccc32)cc1	4.4	0.0	7	-2	4	11	11	8	7	-1.7
C=CCn1c(SCc2cc(=O)n3ccsc3n2)nc2ccccc2c1=O	-10	-1.2	-5	-20	-1	-1	-4	11	12	1.3
Cc1ccc(OCCNC(=O)/C=C/c2ccccc2)cc1C	1.0	1.9	-5	-6	-1	/	0	/	/	/
Cc1cc(C(=O)OCC(=O)NCCN2C(=O)CSC2=O)ccc1[N+](=O)[O-]	1.8	1.4	-3	/	/	-15	-1	-3	16	-5.5
Cc1c(NC(=O)C(C)OC(=O)c2cccc(S(=O)(=O)N3CCOCC3)c2)c(=O)n(-c2ccccc2)n1C (stereo unspecified)	-2.1	0.2	/	-1	6	2	-3	16	3	0.3
CCOc1ccc(NC(=S)N(CCc2c(C)[nH]c3ccc(C)cc23)Cc2cccnc2)cc1	-0.1	0.1	2	-4	49	/	0	-7	-6	3.2
COc1ccccc1N1CCN(C(c2ccc(N(C)C)cc2)c2nnnn2CCc2ccccc2)CC1 (stereo unspecified)	4.5	-0.1	4	-8	21	2	1	/	/	/
CCC12CN(C(=O)c3ccc(OC)cc3)CC(CC)(CN(C(=O)c3ccc(OC)cc3)C1)C2=O	1.8	1.3	2	-1	-4	6	-5	/	/	/
CCCCc1cc(=O)oc2cc(C)cc(OCC(=O)NCc3ccncc3)c12	0.4	0.3	11	/	-2	0	12	-13	-18	0.1
CSc1nc2nc3c(c(=O)n2[nH]1)CCCC3	4.5	-1.2	5	-1	-20	0	2	/	/	/
Cc1ccc(NC(=O)C(C)OC(=O)Cc2c[nH]c3ccccc23)cc1S(=O)(=O)N1CCOCC1 (stereo unspecified)	2.3	0.0	6	5	-20	-3	-5	-1	-9	4.1
COc1ccc(OC)c(NC(=O)c2ccc3c(c2)C(=O)N(c2ccc(OC(C)=O)cc2)C3=O)c1	-1.3	-0.5	2	0	-18	-5	-15	5	9	-3.1
OCCN(Cc1ccccc1)CC(O)COc1ccc2c(c1)OCO2 (stereo unspecified)	2.2	0.3	12	-12	-2	-8	1	-5	-2	0.1
CC(NS(=O)(=O)OCC(Cl)(Cl)Cl)c1ccc(Br)cc1 (stereo unspecified)	1.8	-0.4	2	-26	-4	-18	-2	-23*	-15*	-2.8*
O=C(NCc1cccc(F)c1F)C1CCC(=O)N(C2CC2)C1 (stereo unspecified)	-2.9	-0.1	11	3	-10	-2	-7	9	8	-2.5
CC[C@@H]1C=C(C(=O)O)[C@H](c2ccc(OC)c(OC)c2)N1S(=O)(=O)c1ccc(C)cc1	-2.9	1.2	-1	/	/	/	-5	1	5	-0.9
Cc1c(C(=O)Nc2ccc(Oc3ccccc3)cc2)sc2nc3n(c(=O)c12)CCC3	7.7	0.1	12	3	-1	-2	29	/	/	/
Cc1cccc(N(CC(=O)NC(C)C)C(=O)c2ccc(N3CCCC3)nc2)c1	5.3	0.4	6	-1	5	0	-5	-1	-13	0.5
CC(C)NC(=O)c1ccccc1NC(=O)CN(c1ccc2c(c1)OCO2)S(C)(=O)=O	0.1	-0.8	-7	6	-11	-6	-4	/	/	/
Cc1ccc(C(=O)c2cc([N+](=O)[O-])ccc2N2CCOCC2)c(C)c1	/	0.5	37	-3	29	/	24	/	/	/
Cc1ccc(NC(=O)CSc2nnc(COc3ccccc3C)o2)cc1	1.3	0.1	3	9	-11	0	0	12	6	0.1
C=CCn1c(SCC(=O)N2CCOCC2)nc2c([nH]c3ccccc32)c1=O	4.0	0.7	12	0	45	-6	-5	13	11	0.3
CCCN1C(=O)NC2(O)C(=O)c3ccccc3C12O (stereo unspecified)	5.6	0.9	3	3	-5	-1	2	/	/	/
Oc1c(Br)cc(/C=N/n2c(-c3ccccc3)n[nH]c2=S)cc1Br	0.0	-0.2	-1	3	5	9	/	-1	-8	1.8
COc1ccc(-n2c(SCC(=O)Nc3cccc4ccccc34)nc(O)cc2=O)cc1	-7.4	1.7	-2	9	-10	99*	-11	18	5	19
O=S(=O)(c1ccc(OCC2CO2)cc1)c1ccc(OCC2CO2)cc1 (stereo unspecified)	-0.8	1.3	2	-3	-39	0	25	5	6	0.8
Cc1csc(NC(=O)CSc2nc(=O)cc(N)n2-c2ccc(F)cc2)n1	0.7	0.1	2	-4	-9	92*	/	11	16	3.3
Oc1ccc(C(c2nnnn2CCc2ccccc2)N2CCN(c3nc4ccccc4s3)CC2)cc1 (stereo unspecified)	-4.5	-0.2	0	21	13	-3	6	2	-1	1.5

Reprinted at random: six records from the list
SMILES	LANA-H2A inh	Bfl-1 A1 inh	B2AR ag	Calb FLC	T cruzi repl	ALR inh	Beta cell apopt	rRNA inh HTS	rRNA inh HTS OD600	rRNA inh HTS RFP
Oc1c(Br)cc(/C=N/n2c(-c3ccccc3)n[nH]c2=S)cc1Br	0.0	-0.2	-1	3	5	9	/	-1	-8	1.8
C=CCn1c(SCC(=O)N2CCOCC2)nc2c([nH]c3ccccc32)c1=O	4.0	0.7	12	0	45	-6	-5	13	11	0.3
Cc1csc(NC(=O)CSc2nc(=O)cc(N)n2-c2ccc(F)cc2)n1	0.7	0.1	2	-4	-9	92*	/	11	16	3.3
Cc1ccc(C(=O)c2cc([N+](=O)[O-])ccc2N2CCOCC2)c(C)c1	/	0.5	37	-3	29	/	24	/	/	/
CC(C)NC(=O)c1ccccc1NC(=O)CN(c1ccc2c(c1)OCO2)S(C)(=O)=O	0.1	-0.8	-7	6	-11	-6	-4	/	/	/
COc1ccc(-n2c(SCC(=O)Nc3cccc4ccccc34)nc(O)cc2=O)cc1	-7.4	1.7	-2	9	-10	99*	-11	18	5	19

(cont.)
SMILES	LANA-H2A inh	Bfl-1 A1 inh	B2AR ag	Calb FLC	T cruzi repl	ALR inh	Beta cell apopt	rRNA inh HTS	rRNA inh HTS OD600	rRNA inh HTS RFP
COc1ccccc1N1CCN(S(=O)(=O)CCNC(=O)C2CCCC2)CC1	-4.9	1.8	-1	20	-5	13	2	-1	-2	-1.3
COCCNc1nnc(SCC(=O)Nc2sc3c(c2C(=O)c2ccccc2)CCCC3)s1	-2.3	-0.5	-10	16	-15	37	6	-15	-26	10
CCOC(=O)CSC1=C(C#N)C(c2ccccc2OC)CC(=O)N1 (stereo unspecified)	1.3	0.1	4	-3	-4	-2	6	5	12	-1.5
CCc1ccc2nc(SCC(=O)Nc3ccccc3N3CCOCC3)c(C#N)cc2c1	-3.5	2.8	0	44	16	/	15	-30*	16*	7.6*
O=C(O)c1ccc(N2CCCCCC2)c(N2C(=O)c3ccccc3C2=O)c1	-12	1.1	-2	-6	1	18	-2	/	/	/
Cc1cc(C)c(S(=O)(=O)Nc2ccc(OCC(=O)O)cc2)c(C)c1	1.8	0.9	-2	-6	-10	0	-4	-2	1	-4.3
CS(=O)(=O)N1CCCC(C(=O)NCCCN2CCN(Cc3ccccc3)CC2)C1 (stereo unspecified)	-0.4	0.7	0	2	3	-8	-4	11	9	-3.7
CC(C)(C)c1ccc(C(=O)NCCCN2CCN(CCCNC(=O)c3ccc(C(C)(C)C)cc3)CC2)cc1	-0.2	-0.5	49*	-2	26	-1	/	/	/	/
O=C(COC(=O)c1ccccc1Br)NCCc1ccc(F)cc1	-0.5	-0.2	-4	-7	0	-30	-9	-36	-54	-0.7
C1COCCNCCOCCOCCN1	1.7	0.2	3	1	10	-11	-1	/	/	/
CSc1ccc2c(c1)C(N1CCN(C)CC1)Cc1ccc(F)cc1S2 (stereo unspecified)	0.5	0.5	34	-1	/	3	11	-48*	-30*	-14*
COc1ccc(-n2nnnc2SCC(=O)N2CCOCC2)cc1	-5.9	-0.5	-1	-1	-9	-9	-1	6	2	-2.2

A few values from the entries so far:
`O=C(COC(=O)c1ccccc1Br)NCCc1ccc(F)cc1` in ALR inh = -30
`CS(=O)(=O)N1CCCC(C(=O)NCCCN2CCN(Cc3ccccc3)CC2)C1` (stereo unspecified) in LANA-H2A inh = -0.4

Screening data deposited in PubChem BioAssay by several laboratories.

A portion of the library, so the mix of outcomes need not match the whole.
